# Bioassay records (PubChem)
# TsaE inh = inhibitors of E. coli YjeE (TsaE); actives 0.05% (n = 71,000); Potency, µM; purified YjeE, fluorescence polarisation of a bound ADP probe; AID 605; P0AF67; active = well fitted falling curve; inconclusive = weaker or top-dose-only fall, or a rising curve; inactive = flat or poorly fitted curve;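 also: top concentration of the series not given in the record; excess ADP was the control for the full effect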
#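 Fluorescence polarization of a BODIPY Texas Red–ADP probe (2 uM) bound to purified YjeE (10 uM) was read after 15 min room-temperature incubation with compounds. Loss of polarization marks inhibitors; ADP serves as titrated control.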
# Bst PK mod = modulators of Bacillus stearothermophilus pyruvate kinase; partly purified Bacillus stearothermophilus pyruvate kinase, luminescence ATP production; ribose 5-phosphate activator present at AC10; Potency, µM; actives 1.2% (n = 51,000); AID 361; in the data active means potency below about 11 µM; inconclusive means mostly about 12 µM to 25 µM; inactive means weaker than that;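 the screen sought inhibitors and activators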;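 also: potency is read from the fitted curve at half-maximal effect; scaled between full activation by ribose 5 phosphate and full inhibition by luteolin; about four in five hits inhibit and the cells do not say which; series up to 57 µM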
# An asterisk follows results filed as active; i = inactive; . = not tested or not shown. The list is partial, so the mix of outcomes need not match the whole.
SMILES,TsaE inh,Bst PK mod
COc1ccc(NC(=O)c2cc3ccccc3o2)cc1,i,.
Cc1ccc(C(=O)CSc2nc(N)cc(=O)[nH]2)cc1,i,>57
O=C(Cc1ccccc1)Nc1ccc2oc(-c3cccnc3)nc2c1,i,>57
CC1CCCCC1NC(=O)CN(C)S(=O)(=O)c1cccc2nsnc12 (centres undefined),i,>57
Cc1ccc(-c2cn3c(n2)CCCC3)cc1,i,>57
CCOP(=O)(c1ccccc1Cl)C1(O)CCCCC1 (centres undefined),i,>57
O=C1c2ccccc2C(=O)N1c1nc2nccc(-c3ccccc3)n2n1,i,>57
Brc1ccc2nc3c(n2c1)CCCC3,i,.
CCc1nc(SCC(=O)N2CCOCC2)c2c(=O)n(C)c(=O)n(C)c2n1,i,.
O=C(NCCOC(=O)c1ccncc1)c1ccccc1,i,.
O=C(NCCc1cn2ccccc2n1)c1ccccc1F,i,>57
COCCn1c(=O)c(-c2ccc(F)cc2)nc2cnc(N3CCOCC3)nc21,i,.
N#CC1=C(N)N(c2ccc(Br)cc2)C2=C(C(=O)CCC2)C1c1cccnc1 (centres undefined),i,>57
COCCOC(=O)C1=C(C)Nc2nc(C)nn2C1c1ccccc1 (centres undefined),i,>57
C=CC1C(N2CCOCC2)C(C)(C)S1(=O)=O (centres undefined),i,.
CC(=O)[C@H]1[C@@H]2C(=O)N(c3cccc(Cl)c3)C(=O)[C@@H]2[C@H]2c3ccccc3C=CN21,.,>11.4
CC(C(=O)O)C1SC(=O)NC1=O (centres undefined),i,>57
O=C1c2ccccc2C(O)N1c1ccc(Cl)cc1 (centres undefined),i,.
CN(C(=O)c1ccccc1)c1nc2ccccc2s1,i,8.47*
Cc1cc(C(=O)CSc2nnnn2C)c(C)n1CCc1ccc(Cl)cc1,i,>57

# Part of the list above, with each value named.
SMILES: COCCn1c(=O)c(-c2ccc(F)cc2)nc2cnc(N3CCOCC3)nc21
  TsaE inh: i	Bst PK mod: .

SMILES: N#CC1=C(N)N(c2ccc(Br)cc2)C2=C(C(=O)CCC2)C1c1cccnc1 (centres undefined)
  TsaE inh: i	Bst PK mod: >57

SMILES: COCCOC(=O)C1=C(C)Nc2nc(C)nn2C1c1ccccc1 (centres undefined)
  TsaE inh: i	Bst PK mod: >57

SMILES: C=CC1C(N2CCOCC2)C(C)(C)S1(=O)=O (centres undefined)
  TsaE inh: i	Bst PK mod: .

# (list continues)
SMILES,TsaE inh,Bst PK mod
CS(=O)(=O)Nc1cccc(-c2nc(NCc3ccccc3)c3ccccc3n2)c1,i,.
Nc1nonc1-c1nc2ccccc2n1CC(=O)NC1CCCC1,i,>57
COc1ccc(C(C#N)N2CCCCC2)cc1OC (centres undefined),i,>57
O=S(=O)(O)c1ccc(N=Nc2ccccc2)cc1,i,.
CN(c1nnc(N)s1)C1CCCCC1,i,.
CCOc1ccc(S(=O)(=O)Nc2ccccc2C(=O)Nc2ccccc2N2CCOCC2)cc1,i,>57
O=C(Nc1nccs1)c1cccc(S(=O)(=O)N2CCCCC2)c1,i,>57
CCSCCOC(=O)C1=C(C)N(C)C(=O)NC1c1cc(OC)ccc1OC (centres undefined),i,.
NC(=O)N1c2ccccc2C=Cc2ccccc21,i,>25.6
COc1ccc2c(c1)C(=O)N(CCc1ccc(S(=O)(=O)NC(=O)NC3CCCCC3)cc1)C(=O)C2(C)C,i,.
COC(=O)c1ccccc1NC(=O)c1sc(N)nc1C,i,.
CCN(CC)CCN1C(=O)C(=O)/C(=C(/O)c2ccncc2)C1c1ccccc1F (centres undefined),i,>57
O=C(NCCN1CCCCCC1)c1ccc(N2CCCC2=O)cc1,i,>57
CCc1ccc(NC(=O)c2noc3c2CCCCC3)cc1,i,>57
COc1cccc(Cn2c(=O)c(C)nc3cnc(Oc4cccc(Cl)c4)nc32)c1,i,.
CCCCN(CCCC)CCn1cnc2c([nH]c3ccc(OC)cc32)c1=O,i,.
CC1=C(\C=C/C(C)=C/C=C\C(C)=C\CO)C(C)(C)CCC1,i,.
C[C@@]1(CCOCc2ccccc2)NC(=O)NC1=O,i,.
CC(=O)OC(C(=O)Nc1ccccc1)C(C)S(=O)(=O)c1ccccc1 (centres undefined),i,>57
Cc1ncoc1C(=O)Nc1cccc(Cl)c1C,i,>57
CCCc1cc(=O)[nH]c(SCC(=O)c2c(N)n(C)c(=O)n(C)c2=O)n1,i,>57
COc1cc2c(cc1OC)C(c1cccs1)CC(=O)N2 (centres undefined),i,>57
CC(=O)Nc1nonc1-n1nnc(C(=O)NCc2ccccc2)c1C,i,>57
CN(C)CCCNCCCNC(=O)c1ccncc1,i,>57
OC(COCc1cccs1)CN1CCCCCC1 (centres undefined),i,>57
COc1ccc(C(=O)N2CCN(c3ccc(C)cc3C)CC2)cc1OC,i,.
NC(N)=Nc1ccc(Cl)cc1,i,.
O=C(c1cccc(F)c1)N1CCC[C@@]2(CCN(Cc3ccncc3)C2)C1,i,.
Fc1ccc(CSc2nnc(-c3cccnc3)n2Cc2ccco2)cc1,i,>57
COc1cc(NC(=O)NC(C)(C(F)(F)F)C(F)(F)F)cc(OC)c1OC,.,>25.6
CCC(C)c1cc(S(=O)(=O)N2CCOCC2)ccc1OC (centres undefined),i,>57
CC(C)CCNC(=O)C(c1cccs1)N(CC1CCCO1)C(=O)Cn1nnc2ccccc21 (centres undefined),i,>57
COc1ccc(C2=CC(c3ccc(OC)c(OC)c3)n3nnnc3N2)c(OC)c1 (centres undefined),i,>57
CC(C)OCCCNC(=O)NC12CC3CC(CC(C3)C1)C2,i,>57
Cc1ccccc1NC(=O)CC1SC(=NC2CCCCC2)NC1=O (centres undefined),i,>57
Cn1c(=O)[nH]c(=O)c2c1nc(Br)n2CCSc1nnnn1-c1ccccc1,.,>25.6
CCN(CC)CCN1C(=O)c2oc3ccccc3c(=O)c2C1c1cccc(Br)c1 (centres undefined),i,>57
Cc1nn(C(C)(C)C)c(OC(=O)c2cccs2)c1S(=O)(=O)c1ccccc1,i,>57
COc1ccc(OC)c(-c2cc(C(=O)NCCN3CCOCC3)no2)c1,i,.
COc1nc(N)nc(NC23CC4CC(CC(C4)C2)C3)n1,i,.
NS(=O)(=O)c1cc2c(cc1Cl)N[C@@H](C(Cl)Cl)NS2(=O)=O,i,.
Cc1cc(C)cc(-n2nnc(C(=O)NCc3ccccc3Cl)c2N)c1,i,>57
O=C(c1c[nH]c2ccc(S(=O)(=O)N3CCC4(CC3)OCCO4)cc2c1=O)N1CCOCC1,i,>57
CC(C)CCC(CCN1CCOCC1)c1ccc2c(c1)OCO2 (centres undefined),i,>57
Cc1ccc(-n2ccnc2SCC(=O)N(CC(C)C)C2CCS(=O)(=O)C2)c(C)c1 (centres undefined),i,>57
Cn1c(=O)c(C(=S)NC(=O)C2CC2)c(N)n(Cc2ccccc2)c1=O,i,>57
Cc1ccc(CNC(=O)CCCNS(=O)(=O)c2cccc3nonc23)cc1,i,>57
O=S(=O)(Nc1cccnc1)c1ccc(Cl)c(C(F)(F)F)c1,i,i
O=S(=O)(c1ccccc1)N1CCC2(CCCN(Cc3ccncc3)C2)CC1,i,.
CCCC1(C(=O)OC)NC(c2cc(OC)c(OC)c(OC)c2)C2C(=O)N(CC)C(=O)C21 (centres undefined),i,>57

# Next records:
SMILES,TsaE inh,Bst PK mod
C/C(NCc1cccnc1)=C(\C#N)C(=O)NCc1ccccc1,i,>57
O=C1NCCCc2c1no[n+]2[O-],i,>57
O=C1C2C3C=CC(C3)C2C(=O)N1CN(Cc1ccccc1)CN1C(=O)C2C3C=CC(C3)C2C1=O (centres undefined),i,>57
COc1ccc(-c2cc(C(=O)OCC(=O)N3CCCC3)c3ccccc3n2)cc1,i,10.1*
CC1=CC=CN2CC(O)CN=C12 (centres undefined),.,>25.6
CS(=O)(=O)Nc1cccc(-c2ccc3ncnc(N4CCNCC4)c3c2)c1,i,.
CC(C)CCNc1nc(N2CCCC2)c2c(c1C#N)CCN(C)C2,i,>57
CC(C)OCC1CO1 (centres undefined),i,.
O=C(c1cc2ccccc2oc1=O)N(Cc1ccco1)Cc1cccs1,i,>57
CCOC(=O)Cn1c(=O)oc2cc(S(=O)(=O)Nc3cccc(C)c3)ccc21,i,.
C=C(C)Cn1c(Sc2nnc(C)s2)nc2c1c(=O)[nH]c(=O)n2C,i,>57
Cc1cnc(CNc2ncnc3ccc(-c4ccccc4C)cc23)cn1,i,.
c1ccc(-c2nc3cc(Cc4ccc5oc(-c6ccccn6)nc5c4)ccc3o2)nc1,i,>57
CS(=O)(=O)N(CC(=O)N1CCCC1)c1ccc(Cl)c(Cl)c1,i,.
O=C(NC1CCCCCC1)C1CCN(S(=O)(=O)N2CCC3(CC2)OCCO3)CC1,i,>57
CC1(C)CC(=O)C2=C(C1)OC(N)=C(C#N)C2c1ccsc1 (centres undefined),i,.
CCOC(=O)c1c(C)[nH]c(C(=O)NCc2ccccc2OC)c1C,i,>57
CC(=O)c1ccc(N2CCCC2)c(F)c1,i,.
COc1ccccc1NC(=O)N1CCCC1C(=O)Nc1ccc2c(c1)OCO2 (centres undefined),i,>57
O=C(CSc1nnc(C2COc3ccccc3O2)o1)N1CCCCC1 (centres undefined),i,.
c1ccc(-c2cc(N3CCOCC3)nc(-c3ccccc3)n2)cc1,i,>57
CN(C)CCCN1c2ccccc2Sc2cnccc21,i,.
Cc1cccc2cc(C(c3nnnn3C3CCCC3)N3CCOCC3)c(=O)[nH]c12 (centres undefined),i,>57
CN1CCC2(CC1)CCN(C(=O)c1ccncc1)CC2,i,.
Cc1ccc(-n2nc3c(c2NC(=O)c2ccc4c(c2)OCO4)CS(=O)C3)cc1 (centres undefined),i,i
Cc1c(C)c2cc(Cl)c(OCc3nn[nH]n3)cc2oc1=O,i,>57
CCc1sc(C(=O)NC2CCN(C)CC2)cc1Br,i,>57
Cc1cccc(-n2c(SCC(=O)Nc3nonc3C)nnc2-c2ccoc2C)c1,i,>57
CC(=O)c1cc(CN2CCCCC2)cc(OC(C)C)c1,.,>11.4
C#C[C@H](N)CCC(=O)O,i,.
COC(=O)Cn1c(=NC(=O)CSCC(=O)NC2CCCCC2)sc2cc(OC)ccc21,i,>57
O=C(c1ccccc1)N1CCN(C2CC(=O)N(CCc3ccccc3)C2=O)CC1 (centres undefined),i,.
CC(C)c1[nH]nc2c1C(c1cccc(OC(=O)N3CCOCC3)c1)C(C#N)=C(N)O2 (centres undefined),i,>57
CCOC(=O)c1oc2ccccc2c1NC(=O)COC,i,>57
N#C/C(=C\c1ccc(O)c(O)c1)C(=O)OCCc1cccs1,i,.
Cc1cc(C)nc(SCCc2cccc[n+]2C)n1,i,.
C=CCN1C(=O)/C(=C2/Sc3ccccc3N2C)SC1=Nc1c(C)n[nH]c1C,i,>57
CCCc1cc(C(N)=O)c(NC(=O)c2cc(C)on2)s1,i,>57
COc1ccc2[nH]c(=O)c(CN(C(=O)c3ccccn3)c3ccccc3)cc2c1,i,.
CCOC(=O)c1c(C)nc2ccccn12,i,>11.4
CCCCOc1ccc(C(=O)CCN2CCCCC2)cc1,i,>25.6
O=C(NCc1ccccc1)N(Cc1cc2cc3c(cc2[nH]c1=O)OCO3)CC1CCCO1 (centres undefined),i,>57
CCOc1ccccc1NC(=O)CSc1nnc(-c2cnccn2)n1CC,i,>57
CC(=O)c1cc2c(cc1NC(=O)CN1CCN(c3cccc(C(F)(F)F)c3)CC1)OCO2,i,>57
CCOC(=O)C1=C(O)/C(=C/N(C)C)N=C1C,i,.
CCOC(=O)C(C(=O)OCC)[C@@H]1CS(=O)(=O)C[C@H]1C(C(=O)OCC)C(=O)OCC,i,>57
COc1cc(C2C(C(=O)c3ccc(C)o3)=C(O)C(=O)N2c2cc(C)on2)ccc1O (centres undefined),i,>57
O=C1CC(c2ccccc2)C(C(=O)O)N1 (centres undefined),i,.
Cc1noc(NS(=O)(=O)c2ccc(NC(=O)CSc3ncccn3)cc2)c1C,i,.
O=C(NCCN1CCN(C(=O)c2cc3ccccc3oc2=O)CC1)c1cc2ccccc2oc1=O,i,>57

# (further entries)
SMILES,TsaE inh,Bst PK mod
COc1ccc2c(Cl)c(-c3nnc4n3CCCCC4)sc2c1,i,>57
Cc1cc(C(=O)OCC(=O)Nc2cc(C)on2)c2ccccc2n1,i,>57
CC1CC(C)CN(c2ncnc3c2cnn3Cc2ccc(Cl)cc2)C1 (centres undefined),i,>57
CCOc1ccc(C(=O)Cc2ccc3oc(C(=O)O)cc3c2)c(O)c1,i,>57
c1ccc(CNc2cc(-c3cccnc3)ncn2)cc1,i,.
COc1cc(C(=O)NCc2cn3ccccc3n2)cc(OC)c1OC,i,>57
CC(C)[C@H](Sc1nc(N)nc2nc[nH]c12)C(=O)O,i,.
O=C(NCc1ccc2c(c1)OCO2)C1CC(=O)N(C2CCCCCC2)C1 (centres undefined),i,>57
CC1CC(C)CN(C(=O)CSc2nnc(-c3ccc(F)cc3)o2)C1 (centres undefined),i,.
CCOC(=O)c1oc2ccc(S(=O)(=O)N3CCOCC3)cc2c1C,i,>57

# A portion from the list above, for reference:
SMILES,TsaE inh,Bst PK mod
COc1cc(C(=O)NCc2cn3ccccc3n2)cc(OC)c1OC,i,>57
CC(C)[C@H](Sc1nc(N)nc2nc[nH]c12)C(=O)O,i,.
O=C(NCc1ccc2c(c1)OCO2)C1CC(=O)N(C2CCCCCC2)C1 (centres undefined),i,>57
CC1CC(C)CN(C(=O)CSc2nnc(-c3ccc(F)cc3)o2)C1 (centres undefined),i,.
CCOC(=O)c1oc2ccc(S(=O)(=O)N3CCOCC3)cc2c1C,i,>57

# Structures listed above shown as hits in Bst PK mod.
SMILES,TsaE inh,Bst PK mod
CN(C(=O)c1ccccc1)c1nc2ccccc2s1,i,8.47*
COc1ccc(-c2cc(C(=O)OCC(=O)N3CCCC3)c3ccccc3n2)cc1,i,10.1*
